# A1 inh – inhibitors of the anti-apoptotic protein A1, read as caspase activation | caspase activation, % (test concentration not listed) | 330,000 compounds, 0.066% hits | MEF A1-2A-BIM cells, Caspase-Glo 3/7 luminescence, 3 h; percent of clofoctol response, vehicle zero;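 active = over half of replicate activation scores above 10%, or exactly half above 10 with the replicate mean above 10; inconclusive = replicate mean below 10 yet half the replicates above 10; inactive = over half of replicates below 10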;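 also: wells of about 30 µL received 50 nL stock; many hits fall short of the cut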
# AF4-AF9 inh – inhibitors of human MLL-AF4/AF9 interaction; 350,000 compounds, 0.47% hits; AID 651704; P42568; inhibition, % at 10 µM; AlphaScreen, biotin-AF4 peptide binding to FLAG-AF9;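 active = every replicate reaching a set inhibition limit, whatever the replicate mean, cut at about 25% in these data; inconclusive = mean inhibition reaches that limit but some replicates miss it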;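 also: 0% = plate neutral control median and 100% = total signal loss; the record names both 10 and 1 µM as test concentration; the first replicate is given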
# Target sequence (P42568 whole entry, looked up): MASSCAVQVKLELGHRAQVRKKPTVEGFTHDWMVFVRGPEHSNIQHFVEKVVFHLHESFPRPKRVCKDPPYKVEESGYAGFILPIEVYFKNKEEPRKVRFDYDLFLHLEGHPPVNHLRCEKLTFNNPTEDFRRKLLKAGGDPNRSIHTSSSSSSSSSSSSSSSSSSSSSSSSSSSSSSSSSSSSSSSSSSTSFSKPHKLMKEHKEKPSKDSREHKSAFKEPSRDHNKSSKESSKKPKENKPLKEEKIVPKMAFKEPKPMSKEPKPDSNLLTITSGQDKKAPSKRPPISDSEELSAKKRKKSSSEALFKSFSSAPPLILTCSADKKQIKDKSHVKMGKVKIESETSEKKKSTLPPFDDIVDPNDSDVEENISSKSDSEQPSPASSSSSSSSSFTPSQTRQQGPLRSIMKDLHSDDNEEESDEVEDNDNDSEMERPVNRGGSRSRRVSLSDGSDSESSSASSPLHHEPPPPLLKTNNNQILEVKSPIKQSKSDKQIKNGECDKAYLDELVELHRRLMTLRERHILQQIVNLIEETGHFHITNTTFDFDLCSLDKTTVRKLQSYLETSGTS
# UCH37 DUB inh – blocks the human deubiquitinase UCH37; Q9Y5K5; purified proteasome/UCH37, Ub-AMC cleavage fluorescence; inhibition, % (concentration not given with the values); 330,000 compounds, 0.33% hits; AID 588478;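 active = mean of two replicates above 20%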;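 also: 0% = compound-free wells with enzyme and 100% = wells lacking proteasome; stock transfer was 100 nL into about 20 µL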
# Target sequence (Q9Y5K5 whole entry, looked up): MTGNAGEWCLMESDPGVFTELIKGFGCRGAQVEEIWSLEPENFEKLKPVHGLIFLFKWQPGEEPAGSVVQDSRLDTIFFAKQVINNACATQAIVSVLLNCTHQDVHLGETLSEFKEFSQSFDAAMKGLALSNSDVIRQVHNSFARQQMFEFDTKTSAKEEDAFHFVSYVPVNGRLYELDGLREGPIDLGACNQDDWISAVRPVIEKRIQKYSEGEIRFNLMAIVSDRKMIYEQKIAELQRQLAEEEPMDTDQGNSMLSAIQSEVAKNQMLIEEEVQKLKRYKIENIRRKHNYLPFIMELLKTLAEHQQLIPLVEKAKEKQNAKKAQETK
#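 system = Proteasome-associated human UCH37 deubiquitinase | amount = 0.15 nM proteasome as dispensed | medium = pH 7.4 Tris-HCl (50 mM) with ovalbumin, ATP-MgCl2, DTT | incubation = 30 min preincubation with enzyme, 25 min cleavage at room temperature | detection = AMC fluorescence 355/460 nm | read-out basis = percent inhibition | controls = no-proteasome and no-compound wells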
# rRNA inh HTS – inhibits bacterial ribosomal RNA function over humanized ribosomes | E. coli WT GFP vs humanized-ribosome RFP mutants, fluorescence, 24 h; active compounds read low; DMSO median 0, no signal -100 | GFP signal change (wild-type ribosome), % (concentration not given with the values) | 350,000 compounds, 1.6% hits;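 active = significant combined selectivity score with lowered wild-type GFP, culture density cut under 30%, mutant RFP and density less affected; inactive = any of these conditions unmet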; also: one replicate is shown; some compounds called inactive have numbers as strong as hits
# Beta apoptosis – blocks beta cell apoptosis. INS-1E cytokine-induced death, ATP luminescence, 48 h; percent of positive-control rescue, neutral wells zero. protection from apoptosis, % (concentration not given with the values). 300,000 compounds, 0.8% hits;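 active = all replicates at 75% or more, or half of them and the mean; inconclusive = half reach 75% but not the mean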;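 also: 0% = cytokine-treated negative control wells and 100% = positive control rescue; higher means more ATP so stronger rescue from cytokine killing; wells of about 40 µL received 100 nL stock; the first replicate is given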
# E coli growth – E. coli growth inhibition; OD600 absorbance (no concentration beside the values); 330,000 compounds, 0.21% hits; Escherichia coli growth, OD600, 23 h; active compounds read low; AID 1053175;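 active = OD600 absorbance below the run mean of sample wells minus 3.6 SD, in any replicate, cut at about 0.56 in these data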;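 also: stock transfer was 300 nL into about 60 µL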
# FGF22 binding – FGF22 (human) thermal shift binding; Q9HCT0; recombinant FGF22 thermal shift, SYPRO orange fluorescence; percent of sucrose octasulfate shift, DMSO zero; calls only at 9.99 µM; 340,000 compounds, 1.5% hits; AID 651658;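 active = melting point raised past a set limit in the mean and every replicate; inconclusive = no clear call; three in four hits are not shown here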
# Target sequence (Q9HCT0 whole entry, looked up): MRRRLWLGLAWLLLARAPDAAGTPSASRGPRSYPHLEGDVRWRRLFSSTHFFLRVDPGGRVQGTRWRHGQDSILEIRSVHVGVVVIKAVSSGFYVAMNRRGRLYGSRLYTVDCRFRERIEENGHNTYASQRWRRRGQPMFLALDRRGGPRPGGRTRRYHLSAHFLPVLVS
# T cruzi inh – blocks replication of Trypanosoma cruzi | T. cruzi beta-gal in NIH3T3, luminescence, 90 h | inhibition, % (test concentration not listed) | 300,000 compounds, 1.4% hits;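 active = mean inhibition across valid replicates above about 55%, limit read from the data; inconclusive = mean below that limit but half or more replicates reach it; inactive = mean below it, under half of replicates reach it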;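 also: signal also drops with host cell toxicity which is not excluded here; 0% = plate median of DMSO wells and 100% = zero luminescence signal; higher percent means less beta-gal luminescence so fewer parasites; stock transfer was 50 nL into about 50 µL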
# rRNA inh HTS OD600 – recorded beside rRNA inh HTS, whose call it bears; OD600 change, %; measured here: OD600 growth;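 optical density of the mix in the first replicate; 0 = DMSO median and -100 = no signal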
# rRNA inh HTS RFP – second read-out of rRNA inh HTS, no call of its own (marks repeat the call); RFP signal change, %; measured here: RFP humanized mutant strains;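 first replicate; 0 = DMSO median and -100 = no signal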
# Starred values were filed as active, the others as inactive; i = inactive; ? = inconclusive; · = not tested or not shown.
SMILES,A1 inh,AF4-AF9 inh,UCH37 DUB inh,rRNA inh HTS,rRNA inh HTS OD600,rRNA inh HTS RFP,Beta apoptosis,E coli growth,FGF22 binding,T cruzi inh
Cc1ccc(N(CC(=O)Nc2ccc(-c3nc4ccc(C)cc4s3)cc2)S(C)(=O)=O)cc1,0.1,·,-20,·,·,·,0,0.75,·,7
COCCNC(=O)C(c1cccc(OC)c1)N(C(=O)Cn1nnc2ccccc21)c1cccnc1 (centres undefined),-0.3,·,-2.2,·,·,·,-3,0.73,·,-9
CCCCSc1nnc(CCCCCNC(=O)OC(C)(C)C)o1,0.4,·,0.9,·,·,·,-2,0.62,·,16
COc1ccc([N+](=O)[O-])cc1NC(=O)C(C)OC(=O)Cn1[nH]c(=O)c2ccccc2c1=O (centres undefined),0.0,0.6,5.4,1,6,0.0,-6,0.69,i,-2
COCC(C)n1c(C)cc(C(=O)Cn2nc(C(=O)O)c3ccccc3c2=O)c1C (centres undefined),0.2,4.0,1.4,-2,0,0.3,-4,0.71,i,7
O=C(CCn1ccc2cc(S(=O)(=O)N3CCCC3)ccc21)NCCc1ccccc1,-0.7,4.3,2.6,2,-11,-0.6,0,0.71,i,6
CC(C)CNC(=O)c1c(F)c(F)c(F)c(F)c1F,-0.3,-1.5,6.5,8,13,-0.9,-4,0.76,i,-5
CCOP(=O)(OCC)/C(C#N)=C/c1c[nH]c2ccccc12,1.3,-2.7,7.5,3,13,1.3,·,0.66,i,7
CCOc1ccc(OCC(=O)OCC(=O)N2CCN(C(=O)c3ccco3)CC2)cc1,0.1,-17,4.8,2,2,-0.7,-2,0.67,i,-11
O=C(Nc1ccc(OC(=O)c2cccs2)cc1)c1ccco1,-8.1,·,6.9,·,·,·,8,0.69,·,-1
O=C(CSc1nc2ccccc2c(=O)n1CC1CCCO1)NCc1ccccc1 (centres undefined),-0.5,-7.8,0.6,2,4,-0.3,3,0.66,i,29
Cc1cc(C)n(-c2nc3ccccc3nc2N2CCN(S(=O)(=O)c3ccc(F)c(C)c3)CC2)n1,-0.7,6.8,-28,3,12,-1.6,-4,0.68,i,21
O=C(Cn1nnc2ccccc2c1=O)NC1CCCCC1,0.1,-1.4,2.6,6,6,-1.2,0,0.7,i,4
C#CCN(CC=C)C(=O)c1cccc(OC2CCN(S(C)(=O)=O)CC2)c1,-0.1,-1.2,0.5,0,-1,0.2,-4,0.67,i,-3
CCN(CC)CCNC(=O)CNC(=O)c1nn(-c2ccc(OC)cc2OC)c(=O)c2ccccc12,-0.2,1.4,1.2,6,9,0.7,-1,0.69,i,-14
N#CC(C#N)=C1C=C2C=C(N3CCCCCC3)CCC2CC1 (centres undefined),·,0.1,4.5,79,-23,23,·,·,i,30
CC1CC(C)CN(C(=O)COC(=O)c2ccc3c(c2)OCO3)C1 (centres undefined),0.0,1.3,2.0,5,2,-2.2,-3,0.67,i,·
C=CCc1c(C)nc(SC)nc1Nc1ccccc1,0.9,·,0.8,·,·,·,11,0.71,·,-9
Cc1cc(C(=S)N2CCOCC2)c(C)n1-c1ccc(Cl)cc1,0.6,·,4.0,·,·,·,-1,0.73,·,-10
CCN1CCN(CCOc2cccc(Cl)c2Cl)CC1,0.0,0.8,2.8,8,14,6.3,·,0.69,i,78*
O=C(NCc1ccc(Cl)cc1)c1ccc2nc[nH]c2c1,·,-2.4,3.3,6,10,-0.4,·,0.7,i,-37
COc1ccccc1NC(=O)/C(=C/c1cccc([N+](=O)[O-])c1)c1ccccc1,-0.1,·,2.0,·,·,·,18,0.75,·,39
COc1ccc(CNc2nc3c(c(=O)n(Cc4ccc(Br)cc4)c(=O)n3C)n2C)cc1,1.6,·,0.7,·,·,·,9,0.71,·,-10
COC(=O)c1c(NC(=O)C2CC=CCC2C(=O)O)sc2c1CCCCC2 (centres undefined),0.0,-4.0,0.3,-5,-5,-0.9,-1,0.7,i,-2
Cc1ccccc1N1C(=O)CC(N2CCC(C(N)=O)CC2)C1=O (centres undefined),0.3,-53,1.8,10,1,0.3,4,0.69,i,9
CCOc1ccc(NS(=O)(=O)c2cc3c4c(c2)C(C)C(=O)N4CCC3)cc1 (centres undefined),-0.6,0.2,-0.5,6,-1,2.8,1,0.66,i,-10
Cc1ccc(OCCC(=O)OCC(=O)N2c3ccccc3NC(=O)C2(C)C)cc1,0.5,0.2,1.4,-5,-8,0.3,-5,0.61,i,-1
COc1ccc(CCNC(=O)c2csc3c2CCCC3)cc1OC,0.2,-8.1,3.5,-1,0,0.1,0,0.69,i,3
CCCCCCCN1CCC(=O)N([C@H](CO)Cc2ccccc2)CC1,0.9,2.3,0.8,7,4,5.6,-2,·,i,-1
CCN1CCN(c2nc3c(c(=O)[nH]c(=O)n3C)n2CCCSc2ncccn2)CC1,-1.1,·,-0.9,·,·,·,-9,0.65,·,-17
O=C(CCCO)c1ccc2c(c1)OCCO2,-1.3,·,0.5,·,·,·,-8,0.67,·,-11
O=C(O)c1cccc(NCc2cccnc2)c1,-0.4,·,3.5,·,·,·,-4,0.74,·,-7
Cc1nn(C)cc1C=NCCOCc1ccccc1,-0.4,·,0.0,·,·,·,1,0.73,·,-8
CCn1nc(C)c(CNC(=O)c2cc(COc3ccc(C)nc3)on2)c1C,-0.5,-0.9,-0.1,0,-1,-2.2,4,0.63,i,-4
COc1ccc(S(=O)(=O)NCCc2nnc3ccc(SCc4cccnc4)nn23)cc1,0.3,-1.0,1.1,27,7,-0.9,-3,0.63,i,-4
COC(=O)/C=C1\SC(=Nc2ccc(OC)cc2)NC1=O,0.5,-1.3,6.1,13,10,1.9,-6,0.69,i,-5
CCOC(=O)CN[C@H]1CCC2C3CC=C4C[C@@H](O)CC[C@]4(C)C3CC[C@@]21C (some centres undefined),-0.3,1.0,·,-38,-58,15,-3,·,i,·
CSc1nc2cc(Oc3cccc(Cl)c3Cl)c(Cl)cc2[nH]1,0.9,-1.8,0.1,·,·,·,1,0.46*,i,?
COc1ccc(-c2cc(C3CCN(Cc4ccc([N+](=O)[O-])cc4)CC3)[nH]n2)cc1,-0.1,3.1,2.2,-3,8,5.5,5,0.65,i,85*
O=[N+]([O-])c1ccc(Sc2ccc(Cl)c(Cl)c2)nc1,0.0,·,5.6,·,·,·,6,0.64,·,-4
O=C(OCN1C(=O)c2ccccc2C1=O)c1ccc(Cl)nc1,0.5,-2.9,1.4,5,14,-1.4,-2,0.7,i,4
Cc1ccc(Cn2cccc(NC(=O)NCc3ccccc3)c2=O)cc1,0.5,-0.3,-9.8,0,0,-2.4,-5,0.69,i,-17
Cc1cccc(C)c1OC(=O)Cc1ccccc1[N+](=O)[O-],-0.4,1.1,4.7,-13,-17,-0.4,0,0.69,i,-2
CC(C)Nc1ccc(-n2nc3ccccc3[n+]2[O-])cc1,-3.7,-0.7,-1.3,-3,-8,-6.9,-8,0.62,i,-7
CCCc1nn(C)c(C(=O)Nc2ccc(C)c(C)c2)c1Cl,-0.9,-12,-23,-17,-35,-17,2,0.69,i,-14
CC1C(=O)Nc2ccc(S(=O)(=O)N3CCN(c4cccc(C(F)(F)F)c4)CC3)cc2NC1=O (centres undefined),0.2,1.7,2.3,2,-3,-1.7,4,0.67,i,-13
C[C@@H]1COC(=O)[C@H](CC(=O)OC(C)(C)C)C/C=C\C[C@H](CC(=O)N(CCO)Cc2ccccc2)C(=O)N1,-0.3,-1.7,2.5,1,-2,-5.5,-1,·,i,·
CC1CCCN(c2ccc(C(=O)OCn3nnc4ccccc4c3=O)cc2[N+](=O)[O-])C1 (centres undefined),-0.7,4.7,4.8,·,·,·,4,0.78,i,-12
COc1ccc(C(=O)OCC(=O)c2ccc3[nH]c(=O)[nH]c3c2)c(OC)c1OC,0.5,0.8,4.1,-9,1,-1.3,-4,0.67,i,·
CC(C)(c1ccccc1)c1ccc(OCCN2CCCC2)cc1,-0.4,7.3,2.0,-12,-12,0.7,·,0.62,i,41

# Random excerpt: 2 entries already listed
SMILES,A1 inh,AF4-AF9 inh,UCH37 DUB inh,rRNA inh HTS,rRNA inh HTS OD600,rRNA inh HTS RFP,Beta apoptosis,E coli growth,FGF22 binding,T cruzi inh
COc1ccc(C(=O)OCC(=O)c2ccc3[nH]c(=O)[nH]c3c2)c(OC)c1OC,0.5,0.8,4.1,-9,1,-1.3,-4,0.67,i,·
CC(C)Nc1ccc(-n2nc3ccccc3[n+]2[O-])cc1,-3.7,-0.7,-1.3,-3,-8,-6.9,-8,0.62,i,-7

# More compounds.
SMILES,A1 inh,AF4-AF9 inh,UCH37 DUB inh,rRNA inh HTS,rRNA inh HTS OD600,rRNA inh HTS RFP,Beta apoptosis,E coli growth,FGF22 binding,T cruzi inh
CNC(=O)c1cc2c(ccc3ccccc32)o1,0.4,4.1,-16,-1,2,-5.3,-1,0.68,i,9
Cc1cccc(C(=O)O/N=C(\N)c2ccccn2)c1,-9.0,-1.4,-0.8,1,1,0.6,10,0.69,i,-6
CCC(=O)c1ccc(OCC(=O)N(Cc2nnc(-c3ccccc3Cl)o2)C2CC2)cc1,-0.3,-18,-0.4,0,-3,-2.1,·,0.64,i,11
NC12CC3CC(C1)CC(CO)(C3)O2,0.4,·,-3.8,·,·,·,-4,0.77,·,-22
Cc1ccc(-c2nn(-c3ccccc3)cc2C=C2C(=O)CC(C)(C)CC2=O)cc1,-0.5,·,1.0,·,·,·,-1,0.65,·,12
O=C(CNS(=O)(=O)c1ccccc1F)Nc1ccc(N2CCOCC2)cc1,-0.9,·,5.5,·,·,·,-1,0.73,·,-12
CCCNS(=O)(=O)c1ccc(CCC(=O)Nc2ccc3c(c2)OCO3)cc1,1.9,·,2.3,·,·,·,7,0.74,·,2
C#CCN(CC=C)C(=O)c1ccc(OC2CCN(S(=O)(=O)N(C)C)CC2)cc1,-0.7,-0.2,1.5,0,-1,-4.1,-1,0.67,i,-2
CN(C)C(=O)CCc1ccc2c3c([nH]c2c1)[C@]1(CCC2CCCC2)[C@@H](C(=O)N2CCOCC2)C[C@H](CC(=O)NCc2ccco2)C(=O)N1CC3,·,1.3,1.6,1,-3,2.9,·,0.68,i,·
Cc1ccc(NC(=O)COC(=O)c2ccnn2C)cc1,0.7,·,1.4,·,·,·,-2,0.66,·,-2
O=C(NCCc1ccccc1)C1CCN(C(=O)N2CCOc3ccccc32)CC1,0.4,-10,1.3,-5,-11,-1.8,1,0.78,i,-5
COc1ccc(N(CC(=O)NCc2ccccc2)C(=O)Cn2nnc(-c3ccccc3F)n2)cc1OC,0.1,-0.6,0.3,12,6,1.7,11,0.67,i,2
Cc1nnc(NC(=O)C2CCCCC2)s1,0.2,·,3.3,·,·,·,-5,0.66,·,-14
O=C(O)c1ccc(N/N=C/c2cc3ccccc3nc2Cl)cc1,-4.7,4.6,·,-29,-31,-5.5,-7,·,i,-18
CCn1c(SCC(=O)Nc2nc3ccc(OC)cc3s2)nc2c1c(=O)n(C)c(=O)n2C,-0.8,·,-0.8,·,·,·,·,0.72,·,-4

# Source: PubChem (several laboratories)

# Only part of the results is shown; count on the stated rates, not on these rows.
